# Bead autofluor = flagged as autofluorescent in microsphere protease counterscreen | compound autofluorescence counterscreen, microsphere flow cytometry; active compounds read high | fluorescence intensity (concentration not given with the values) | 3.1% of 360,000 active;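 active = at least 3 SD above the mean of all compounds, about 16000 in these data; inconclusive = too few beads counted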;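 also: 100 nL of 1 mM stock went into each well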
# ugtP null kill = growth inhibition of S. aureus ugtP deletion strain | AID 1259309 | S. aureus RN4220 ugtP deletion, OD600 growth, 16 h; some inactives read as strong as hits | 0.54% of 330,000 active | growth inhibition, % (concentration not given with the values);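 active = z-score under -3 and OD600 up to 0.15 on both plates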;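 also: plate controls were untreated wells for no effect and antibiotic for full effect; wells of about 80 µL received 100 nL stock; the first replicate is given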
# BJeLR lethal = kills HRASV12-expressing BJeLR cells; BJeLR (HRASV12) viability, CellTiter-Glo ATP luminescence, 48 h; reference of the scale not given here; inhibition, % (no concentration beside the values); 0.17% of 300,000 active; AID 1554;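 active = replicate mean above 50%; inconclusive = above 50% but judged a plate artefact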;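 also: 50 nL library stock added to about 25 µL; numbers are from one replicate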
# Mtb hypoxia inh = inhibitors of hypoxia-regulated fluorescent reporter in Mycobacterium tuberculosis. 0.1% of 300,000 active. fluorescence inhibition, % (concentration not given with the values). M. tuberculosis hypoxia-regulated fluorescent reporter, fluorescence;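 active = 35 to 45% if threefold the growth effect, above 45% if 1.5-fold the growth effect; inactive = the rest, general growth blockers included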;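 also: wells of about 50 µL received 100 nL stock; 0% = vehicle wells and 100% = reference inhibitor wells; whole bacteria with a GFP reporter of the hypoxia response; strong numbers were not always called active; many hits fall short of the cut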
# PrP UTR inh = inhibition of PrP 5' UTR reporter expression; cell-based PrP 5' UTR mRNA reporter, plate reader; 0.35% of 340,000 active; inhibition, % (concentration not given with the values); AID 488862;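 active = every replicate at 50% or more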;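 also: 0 = median of the neutral control wells; tested in H4 reporter cells; numbers are from one replicate; inactives centre near -14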
# Sa RN4220 lethal = kills Staphylococcus aureus RN4220. S. aureus RN4220 growth, OD600, 16 h. inhibition, % (no concentration beside the values). 0.33% of 330,000 active. AID 1259311;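 active = z-score of -3 or lower and OD600 up to 0.18 on both plates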;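 also: plate controls were untreated cells for no effect and reference antibiotic for full effect; stock transfer was 100 nL into about 80 µL; one replicate is shown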
# Mtb hypoxia inh growth = recorded beside Mtb hypoxia inh, whose call it bears; growth inhibition, %; measured here: M. tuberculosis growth (absorbance);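 0% = vehicle and 100% = reference antibiotic; read after six days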
# * hit, by the source's call; ? = inconclusive; . = no result given; & = joins results of further samples.
Structure,BJeLR lethal,Mtb hypoxia inh growth,Sa RN4220 lethal,Mtb hypoxia inh,Bead autofluor,ugtP null kill,PrP UTR inh
CC(C)(CO)Cc1cc(C(C)(C)C)c(O)c(C(C)(C)C)c1,.,-4,6.6,-5,5695,-15,-19
COc1cc2ccc(=O)oc2c(O[C@@H]2O[C@H](CO)[C@@H](O)[C@H](O)[C@H]2O)c1O,-10,6,-0.2,-12,3661&2976,-3,-23&-12
Cc1ccccc1OC(=O)c1cccnc1,-3,0,3.6,7,3765,-8,-25
CCOc1ccccc1C(O)C1=CC(=O)c2ccccc2C1=O (stereo not drawn),.,-18,-0.8,0,3607,-2,-81
Fc1ccc(OCc2nnc(-c3ccccc3Br)o2)c(Cl)c1,-15,1,5.1,14,5333,7,-71
CCOC(=O)c1c(N)ssc1=S,-3,8,7.6,13,6181,8,-8
Cc1ccc(S(=O)(=O)Nc2c(C)[nH]c(=O)[nH]c2=O)cc1C,11,2,2.2,7,2356,8,-14
O=C(NNC1=NC2(CCCC2)Cc2ccccc21)c1cccnc1,11,-6,3.6,14,4526,2,-21
CC(C)N(Cc1nc(-c2ccc(Cl)cc2)no1)C(=O)c1cccs1,5,7,4.6,6,8110,20,-14
CC(C)(C)NC(=O)NC(=O)CSc1ccc(S(=O)(=O)N2CCCCC2)cn1,.,6,1.8,-1,3957,0,-16
O=C1C2C3C=CC([C@@H]2C(=O)N1c1nccs1)C31CC1 (stereo partly drawn),5,17,-10,23,2918,-1,-9
Cc1cc(C)cc(C(=O)N2CCN(c3ccccn3)CC2)c1,-7,4,-1.0,8,4144,6,-11
O=C1C2CC=CCC2C(=O)N1Cc1nnc(-c2ccccc2Br)o1 (stereo not drawn),-1,-2,1.8,0,4349,6,-19
O=C1NCCN1Cc1ccc(Cl)cc1,5,5,8.5,11,3775,5,-14
O=C(CCC(=O)Nc1ccc(F)cc1)N/N=C/c1ccc(O)cc1,-4,.,.,.,3159,.,-7
O=C(Nc1cccc(-c2cn3ccsc3n2)c1)c1ccccc1,9,.,1.6,.,4759,-13,-33
CC(C)[C@@H](C(=O)OCC(=O)Nc1ccc2c(c1)OCO2)N1C(=O)c2ccccc2C1=O,1,7,1.3,16,.,5,-29
O=C(Cn1ccc2ccccc2c1=O)NCC(=O)Nc1ccc(F)cc1F,2,-1,1.5,1,3935,2,-22
Cc1sc(NC(=O)C2CSC3(C)CCC(=O)N23)nc1-c1ccc(F)cc1 (stereo not drawn),-13,1,-2.2,3,4106,2,-9
Cc1ccc(CNC(=O)c2cc3c(-c4ccc(Cl)cc4)nn(C)c3s2)o1,1,.,-5.8,.,4167,1,-16
C=CCC(C)(NCc1ccccc1)c1ccco1 (stereo not drawn),-2,7,-2.6,-2,4280,-4,-13
Cc1cc(C)c(S(C)(=O)=O)c(Oc2ccc(F)cc2)n1,-4,1,-14,-2,?,-2,-19
O=C1CCCc2nc(NCc3ccco3)ncc21,0,.,3.3,.,3755,-3,-15
CCOc1ncccc1C(=O)Nc1ccc(S(=O)(=O)N2CCCC2)cc1,1,0,0.9,0,3321,-1,-29
CCCC(=O)c1c[nH]c(C(=O)NCCc2ccccn2)c1,9,.,2.2,.,2391,7,-18

# Two successive entries out of the list so far:
Structure,BJeLR lethal,Mtb hypoxia inh growth,Sa RN4220 lethal,Mtb hypoxia inh,Bead autofluor,ugtP null kill,PrP UTR inh
CCOc1ncccc1C(=O)Nc1ccc(S(=O)(=O)N2CCCC2)cc1,1,0,0.9,0,3321,-1,-29
CCCC(=O)c1c[nH]c(C(=O)NCCc2ccccn2)c1,9,.,2.2,.,2391,7,-18

# Other entries follow.
Structure,BJeLR lethal,Mtb hypoxia inh growth,Sa RN4220 lethal,Mtb hypoxia inh,Bead autofluor,ugtP null kill,PrP UTR inh
CC1(C(=O)N/N=C/c2ccccc2)CC1(Br)Br (stereo not drawn),12,.,.,.,3070,.,-20
C/C(Cn1nnc([N+](=O)[O-])n1)=N\NC(=O)c1ccccc1Cl,-6,.,.,.,9011,.,-19
O=C(c1ccccc1)N(C(=O)c1ccccc1)c1ncnc2c1C(c1ccccc1)c1c(ccc3ccccc13)O2 (stereo not drawn),.,4,4.0,-4,3963,-8,9
CC(=O)Nc1ccc(OCC(O)Cn2nc(C)c(C)c2C)cc1 (stereo not drawn),5,5,-0.8,13,3060,0,-10
Cc1ccc(NC(=O)CN(C)C(=O)c2ccc(OCc3cn4ccccc4n3)cc2)cc1,.,-6,-3.5,-6,3016,-6,5
O=C(COc1ccc(Cl)cc1)Nc1nnc(-c2ccc3c(c2)CCCC3)o1,-10,2,100*,0,6329,96*,-29
CCc1nc(SCC(=O)Nc2nnc(CC(C)C)s2)n[nH]1,-5,-1,4.5,7,2654,6,-30
C[C@@]12CC(=O)NC1N(C(=O)c1cccc(C(F)(F)F)c1)C(c1ccccc1O)C2 (stereo partly drawn),0,.,4.2,.,3283,1,-5
N#Cc1c(NC(=O)CSc2nnnn2C2CCCCC2)sc2c1CCCC2,10,6,4.8,4,5184,-3,2
COc1cccc(/C=N/Nc2ncc(C(F)(F)F)cc2Cl)c1O,14,.,.,.,2414,.,31
CCOc1ccc(N2CC(C(=O)NNC(=O)c3ccc(Br)cc3)CC2=O)cc1 (stereo not drawn),-1,.,.,.,?,.,-12
O=C(O)c1cccc2c1C(=O)N(CC1CCCO1)C2 (stereo not drawn),-7,5,5.8,8,3703,0,-12
O=C(c1cc([N+](=O)[O-])[nH]n1)N1CCSCC1,0,-2,1.6,-1,3833,4,-13
CCCCn1c(O)c(/C=N/N2CCCCC2c2cccnc2)c(=O)[nH]c1=S (stereo not drawn),0,1,5.9,15,2382,-6,-6
CCOC(=O)/C(C#N)=C\c1ccc(OC)c(OC)c1,0,4,6.4,12,4231,2,-15
CC(=O)NC(CC(=O)NCCOc1ccccc1F)c1ccccc1 (stereo not drawn),0,4,4.5,-4,5252,7,-19
CC(=O)NC1=NN(C(C)=O)C(c2ccco2)S1 (stereo not drawn),-7,8,4.0,13,?,15,-4
NS(=O)(=O)c1ccc(CNC(=O)c2ccncc2)cc1,1,-1,2.8,4,4573,6,-12
Cc1coc2cc3oc(=O)c(CCC(=O)N[C@@H](CCCNC(N)=O)C(=O)O)c(C)c3cc12,4,-13,0.3,-9,3046,-4,-3
COC(=O)[C@]1(C)NC(c2ccc(-c3ccc(Cl)c(Cl)c3)cc2)C2C(=O)N(C)C(=O)C21 (stereo partly drawn),.,14,-6.4,24,.,4,.
CCOC(=O)c1ccc(N2C(=O)c3n[nH]c(-c4ccco4)c3C2c2ccc([N+](=O)[O-])cc2)cc1 (stereo not drawn),-10,.,.,.,9305,.,-27
CCC(CC)c1nnc(NC(=O)C2CC(=O)N(CCc3ccc(F)cc3)C2)s1 (stereo not drawn),-2,4,7.0,2,6111,1,-16
CN(C)S(=O)(=O)c1cccc(NC(=O)c2ccc(NS(=O)(=O)c3cccs3)cc2)c1,.,15,6.7,5,6053,4,-11
CC(C(c1ccc2c(c1)OCO2)c1c(N)n(C)c(=O)n(C)c1=O)[N+](=O)[O-] (stereo not drawn),2,-5,4.5,3,2890,5,1
CC1(C)C(O)CC[C@@]2(C)C1CC[C@]1(C)C2C(O)C=C2C3C[C@@](C)(CO)CC[C@]3(C)CC[C@@]21C (stereo partly drawn),.,7,-5.3,0,.,3,.

# Following part
Structure,BJeLR lethal,Mtb hypoxia inh growth,Sa RN4220 lethal,Mtb hypoxia inh,Bead autofluor,ugtP null kill,PrP UTR inh
CC(C)=CCN1CCN(C/C(Cl)=C/c2ccccc2)CC1CCO (stereo not drawn),-8,2,15,12,3936,5,-12
O=Cc1ccc(OCc2ccc3ccccc3c2)cc1,-6,0,-2.9,0,3820,6,-74
CC(C)Cc1nnc(NC(=O)CN2C(=O)NC3(CC(C)CC(C)(C)C3)C2=O)s1 (stereo not drawn),-12,7,1.7,-6,5496,-2,-14
NS(=O)(=O)c1ccc(CNC(=S)Nc2ccc(Cl)c(Cl)c2)cc1,10,1,-1.9,7,4819,-13,-44
CCOC(=O)c1c(N)sc2c(OC)c(Br)ccc12,-8,.,-14,.,3906,7,-1
O=C(NN=Cc1ccoc1)c1ccc([N+](=O)[O-])cc1,.,-7,5.5,-8,.,2,.
O=C1NC(=O)/C(=C\c2ccccc2OCc2cccc([N+](=O)[O-])c2)N1,-3,2,4.7,11,2254,-7,-16
CC(C)n1cc(-c2ccc(Cl)cc2)cc(C#N)c1=O,-7,7,3.8,11,2480,34,6
O=C(Nc1ccc(Nc2ccncc2)cc1)c1ccc([N+](=O)[O-])cc1,11,-1,-0.2,1,3510,0,-23
CCOC(=O)C1=C(CNCc2ccc(C)cc2)NC(=O)NC1c1cc(C)ccc1C (stereo not drawn),2,17,1.1,-3,17821*,-22,-7
CC(C)(C)c1ccc(C(=O)c2c[nH]c(C(=O)NCc3cccs3)c2)cc1,6,.,-0.6,.,4800,10,-17
Cc1nnc(C)n1/N=C/c1cccs1,-9,.,.,.,3236,.,-16
O=C1NC(=O)N(Cc2ccco2)C(=O)/C1=C/c1cccn1CCOc1ccccc1Cl,1,.,.,.,2596,.,-21
CC1(C)CC(NC(=O)CC(c2ccccc2)c2ccccc2)CC(C)(C)N1,-5,-4,4.1,12,.,3,1
CCOc1ccc(C(=O)CCN2CCCCCC2)cc1,4,8,8.1,7,2711,6,-10
Cc1occc1C(=O)NNC(=O)c1ccc(S(=O)(=O)N(C)C)cc1,.,11,-0.1,5,8367,1,-2
C=CCN(c1ccc(C(=O)Nc2ccc(C)cc2)cc1)S(C)(=O)=O,4,0,0.8,2,3580,-5,-18
O=C1C=C(c2ccc(Cl)nc2)CC(c2ccc3c(c2)OCO3)C1 (stereo not drawn),.,10,3.1,7,.,-1,.
O=C(NNC(=O)c1cc2c(s1)CCCC2)c1ccccc1,7,7,1.0,6,2753,4,-54
O=C(O)c1cccc(Cn2c(Cl)c(C=NNC(=O)c3ccco3)sc2=O)c1,.,6,2.7,10,.,7,.
N#Cc1ccc(S(=O)(=O)Nc2ccccc2N2CCOCC2)cc1,.,0,3.4,5,.,6,-9
COCCn1c(C)cc(C(=O)CN2CCCCC2)c1C,7,0,4.0,-9,3746,5,-36
CCC(C)NC(=O)CSc1nc2c(sc(=S)n2Cc2ccco2)c(=O)n1-c1ccccc1 (stereo not drawn),3,9,-5.6,3,5479,26,-15
O=C(C=Cc1cn(-c2ccccc2)nc1-c1ccc2c(c1)OCCO2)NCCO,.,4,4.6,0,.,-1,.
Cc1nn(C)c(C)c1S(=O)(=O)N(CC(=O)NCCCOC(C)C)c1ccc(C(C)C)cc1,-6,6,6.3,6,11366,3,-12

# Next records follow.
Structure,BJeLR lethal,Mtb hypoxia inh growth,Sa RN4220 lethal,Mtb hypoxia inh,Bead autofluor,ugtP null kill,PrP UTR inh
Cc1cccn2c(CN(C)C3CCCc4ccccc43)c(C(=O)N3CCOCC3)nc12 (stereo not drawn),2,2,4.1,6,3810,-1,-9
COc1ccccc1-c1ccc(=O)n(CC(=O)NC(C)(C)C)n1,.,2,2.3,5,16772*,7,-1
COc1ccc(C(CNC(=O)c2ccc(NS(=O)(=O)c3ccc(F)cc3)cc2)N2CCOCC2)cc1 (stereo not drawn),-5,9,-0.1,10,6181,4,-16
CC1(C)CC2CC(C)(CN2C(=O)C23CCC(C)(C(=O)C2)C3(C)C)C1 (stereo not drawn),4,4,13,3,2110,1,-21
Cc1ccc(C)c(N2CCN(CCCNC(=O)Cn3cccc3C(=O)c3ccccc3C)CC2)c1,-1,.,-0.5,.,5056,-2,5
CCc1cc(C(=O)N2CCCC(N3CCN(c4cccc(C(F)(F)F)c4)CC3)C2)n(C)n1 (stereo not drawn),8,-4,2.2,-1,5904,4,-4
Cc1ccc2nc(SCc3ccc([N+](=O)[O-])cc3)nc(C)c2c1,0,15,7.8,15,23313*,7,-24
CCOC(=O)c1sc(N2C(=O)C(O)=C(C(=O)c3ccc(C)o3)C2c2ccc(OC)c(OC)c2)nc1C (stereo not drawn),3,6,9.9,1,5126,25,-16
Cc1ccc(N(C)S(=O)(=O)c2c(C)[nH]c(C)c2C(=O)N2CCCC2)cc1,-20,2,1.3,-3,5377,1,-6
COC(=O)c1cc(NC(=O)CC2NC3CCCCC3NC2=O)cc(C(=O)OC)c1 (stereo not drawn),4,2,6.1,11,22818*,8,-28

# Screening data from PubChem.
